Sfp inh: qHTS Assay for Inhibitors of Bacillus subtilis Sfp phosphopantetheinyl transferase (PPTase). 4'-phosphopantetheinyl transferase ffp (Bacillus subtilis), Q9F4F7. Biochemical Sfp PPTase activity, qHTS. Potency, µM, for the others: max response, negative = inhibition, most hits filed as inhibitors. 310,000 compounds, 3.5% hits. AID 1490, 2009; active = well fitted inhibition curve with a large enough effect; inconclusive = small, poorly fitted or top-dose-only effect, or another doubt; inactive = no such curve, though single readings can be large or run the other way;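 note: the enzyme is Sfp with the accession as filed and its product quenches rhodamine fluorescence; potency is the fitted concentration of half-maximal effect; 0% = enzyme reaction without inhibitor and -100% = no enzyme wells; top concentration of the series not given in the record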
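Compounds were incubated with enzyme (final 15 nM) for 15 min at room temperature before substrate addition started the reaction. Fluorescence at 525 nm excitation, 598 nm emission was recorded immediately and after 30 minutes.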
Menin MLL FP FL: qHTS Assay for Inhibitors Targeting the Menin-MLL Interaction in MLL Related Leukemias: Competition With Fluorescein Labeled MLL-derived Peptide. Fluorescence polarization, fluorescein-MLL peptide displacement from menin. FP activity change, % at 61.4 µM. 290,000 tested, under 10 active; inconclusive = falling polarisation curve, or a change in total fluorescence; inactive = total fluorescence flat and polarisation flat or rising; no compound was filed as active; the % refers to the polarisation; negative = inhibition;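 note: % of control where 0% means no effect; inhibitors lower the polarisation; unlabelled MLL peptide was the positive control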
TRPV1 potentiator: HTS Assay for Compounds that Act as Potentiators of the Vanilloid Receptor 1; Transient receptor potential cation channel subfamily V member 1 (Homo sapiens), Q8NER1; TRPV1-expressing cells, Fluo-8 calcium influx, capsaicin EC20 potentiation; host cell line not named in the record; control for the full effect not named in the record; potentiation, % at 8.33 µM; 320,000 compounds, 0.02% hits; active means potentiation above 80%; inconclusive means 30% to 80%; inactive means below 30%; note: 0% is about no effect
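Fluo-8 calcium influx in TRPV1-expressing cells, kinetic read (ex 480/em 520 nm). Compound added and read 3 min for agonist activity, followed by capsaicin at EC20 final and 2 min further read for enhancement.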
ClpP mod: qHTS Assay for Activators of ClpP | ATP-dependent Clp protease proteolytic subunit (Bacillus subtilis (strain 168)), P80244 | purified B. subtilis ClpP, FRET peptide cleavage, 20 min | Potency, µM (doses to about 57.5 µM), for inactives: top-dose activity change, negative = active | 340,000 compounds, 1.9% hits | AID 651965, 2013; active = well fitted falling curve with a large enough effect; inconclusive = small, poorly fitted or top-dose-only effect; inactive = no such curve, though single readings can be large or run the other way; note: potency is the fitted concentration of half-maximal effect; the source files actives as falling curves though it sought activators and does not explain the sign; nearly all actives have a fitted effect of over 65% in size; many hits overshoot -100%
Target sequence (P80244 whole entry, looked up): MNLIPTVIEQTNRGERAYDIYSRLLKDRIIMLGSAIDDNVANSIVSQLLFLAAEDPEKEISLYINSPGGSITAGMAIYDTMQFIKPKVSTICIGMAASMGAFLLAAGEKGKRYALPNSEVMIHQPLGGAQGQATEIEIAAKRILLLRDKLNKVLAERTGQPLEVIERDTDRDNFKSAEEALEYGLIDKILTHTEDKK
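Buffer: 100 mM Tris/HCl pH8, 100 mM KCl, 0.05% low protease BSA, 2.5% glycerol, 0.01% Tween-20. ClpP 10 microg/mL final; 20 min RT; delta FRET normalized to ADEP and DMSO controls.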
gsp ag: qHTS for Agonist of gsp, the Etiologic Mutation Responsible for Fibrous Dysplasia/McCune-Albright Syndrome: qHTS. gsp mutant cells, cAMP HTRF, 30 min; control for the full effect not named in the record. Potency, µM (doses to about 76.9 µM), for the others: top-dose activation (cAMP increase), most hits filed as activators. 340,000 compounds, 0.13% hits. AID 624287, 2012; active = well fitted activation curve with a large enough effect; inconclusive = small, poorly fitted or top-dose-only effect, or another doubt; inactive = no such curve, though single readings can be large or run the other way; cell line not stated here;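 note: phosphodiesterase inhibitor Ro 20-1724 added with compounds to block cAMP breakdown; potency is the fitted concentration of half-maximal effect; nearly all actives have a fitted effect of over 60% in size; about a fifth of the inactives were tested at one dose only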
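Cells stably selected in G418 were plated at 2000/well, grown 16-24 hr, then given compounds in DMSO with the PDE inhibitor […] (300 uM solution added) for 30 min at 37C; cAMP was read by HTRF.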
D2 potentiator: Beta-Arrestin HTS for Positive Allosteric Modulators of the Human D2 Dopamine Receptor: Potentiators; 360,000 compounds, 0.23% hits; potentiation, % (test concentration not listed); DiscoveRx D2 beta-arrestin cells, luminescence, 90 min; 100% = 57 uM dopamine signal; active = potentiation of 50% or more; inconclusive = 30% to 50%; inactive = 30% or less;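 note: compound concentration not given in the record; tested on top of an EC20 dose of dopamine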
Target sequence (P14416 whole entry, looked up): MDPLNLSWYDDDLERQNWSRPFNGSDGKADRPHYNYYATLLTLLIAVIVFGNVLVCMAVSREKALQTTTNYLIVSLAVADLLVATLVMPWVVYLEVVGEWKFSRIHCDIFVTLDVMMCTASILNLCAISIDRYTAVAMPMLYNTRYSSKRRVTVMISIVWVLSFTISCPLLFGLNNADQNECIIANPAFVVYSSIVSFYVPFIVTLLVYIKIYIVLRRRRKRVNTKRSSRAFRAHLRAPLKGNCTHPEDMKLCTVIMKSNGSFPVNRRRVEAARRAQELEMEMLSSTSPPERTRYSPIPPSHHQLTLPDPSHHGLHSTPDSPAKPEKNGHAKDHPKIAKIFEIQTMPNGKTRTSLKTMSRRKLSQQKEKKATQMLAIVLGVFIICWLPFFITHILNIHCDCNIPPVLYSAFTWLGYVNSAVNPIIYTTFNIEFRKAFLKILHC
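D2 cells co-treated with compound plus 50 nM dopamine (EC20) for 90 min at 37 deg C to detect potentiation. Beta-arrestin recruitment was read as enzyme-fragment luminescence after 1 h at ambient temperature. Full response was set by 57 uM dopamine.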
gsp antagonist: qHTS for Antagonists of gsp, the Etiologic Mutation Responsible for Fibrous Dysplasia/McCune-Albright Syndrome: qHTS; Potency, µM (doses to about 76.9 µM), inactives show at the top dose activity change, negative = inhibition, usual class: inhibitors; 340,000 compounds, 0.4% hits; AID 624288, 2012; gsp-mutant cells, cAMP HTRF, 30 min; control for the full effect not named in the record; active = falling curve of any shape with a large fitted effect; inconclusive = falling curve, mostly with a smaller effect; inactive = flat or rising curve; cell line not stated here;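 note: intracellular cAMP measured with PDE inhibitor Ro 20-1724 present during compound exposure; potency is the fitted concentration of half-maximal effect; % is set by controls: 0 for no effect and ±100 for the full control effect; nearly all actives have a fitted effect of over 65% in size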
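Cells, 2000/well, grown 16–24 h in DMEM 10% FBS with 0.5 mg/ml G418, then compounds plus […] (300 uM addition stock), 30 min at 37C. cAMP read by HTRF (cAMP-d2 and anti-cAMP antibody-K in lysis buffer) after 30 min RT.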
Starred values were filed as active, the others as inactive; ? = inconclusive; nt = not tested or not shown; & = joins results of further samples; [ ] = remark or other dose.

Below each compound – Sfp inh	Menin MLL FP FL	TRPV1 potentiator	ClpP mod	gsp ag	D2 potentiator	gsp antagonist
1	COc1ccc(C2=NN(C(=O)CCC(=O)O)C(c3ccccc3OC)C2)cc1 (stereo not given)
 : 10.6%	-2.1	-1.2	nt	-4.2%	-1.1	-14.3%
2	O=C(NCC1CCCO1)c1ccc(Cl)c(S(=O)(=O)N2CCOCC2)c1 (stereo not given)
 : 11.4%	0.6	11.8	0.2%	-3.9%[15.4 µM]	-8.9	-6.6%
3	CC(C)c1nnc(NC(=O)CCC(=O)N2CCN(c3ccccn3)CC2)s1
 : 3.1%	-0.3	3.8	?	-56.4%[inhibitor]	0.4	1.0%
4	CCc1ccc(C(=O)Nc2cccnc2Oc2ccc(Cl)cc2)cc1
 : -3.4%	2.4	nt	nt	-3.8%[15.4 µM]	-5.3	-17.1%
5	CC(=O)Nc1ccc(-c2nnc(SCC(=O)n3c4c(c5ccccc53)CCCC4)n2C)cc1
 : 13.2%	2.7	3.4	-0.4%	1.9%	9.8	9.4%
6	Cc1noc(C)c1NC(=O)Nc1cccc2c1O[C@H](CN(C)S(=O)(=O)c1c(C)noc1C)[C@@H](C)CN([C@H](C)CO)C2=O
 : nt	nt	nt	-1.3%	22.5%	-4.6	6.3%
7	CC(=O)N1CC(C)Oc2ccc(S(=O)(=O)NC(CC(=O)O)c3ccccc3)cc21 (stereo not given)
 : 38.4%[activator]	8.8	3.4	-3.1%	38.0%	-0.3	10.1%
8	Nc1ccc2ccccc2c1[N+](=O)[O-]
 : nt	nt	nt	nt	-27.8%	-3.5	-0.9%
9	Cc1noc(C)c1COc1cccc(C(=O)NCc2cccc(Cl)c2)c1
 : 10.0%	0.1	-34.2	0.0%	4.5%	-14.3	-3.0%
10	CN(C)CCCNC(=O)c1ccc(-c2ccccc2)cc1
 : 9.2%	-2.9	-6.6	-5.5%	-3.1%	-35.8	12.1%
11	COc1ccc(-c2cc(C(F)F)n3ncc(C(=O)Nc4cnn(Cc5ccccc5)c4)c3n2)cc1
 : -1.1%	-1.9	12.0	nt	nt	nt	nt
12	COc1ccc(Cl)cc1NC(=O)CN(C)C(=O)c1ccc(C)s1
 : nt	nt	-7.2	nt	19.5%[15.4 µM]	-3.1	-4.6%
13	COc1ccc(CNC(=O)CSc2ccsc2[N+](=O)[O-])cc1
 : 17.0%	-0.1	-0.5	-0.6%	1.2%	-4.1	-2.4%
14	O=C(COc1ccc(Cl)cc1)OCc1csc(Nc2ccccc2)n1
 : -13.4%	-0.3	-16.9	0.5%	-50.0%[inhibitor]	-25.6	-0.6%
15	O=C(CCn1c(=O)c2ccccc2n(Cc2ccccc2)c1=O)NCc1ccc2c(c1)OCO2
 : -14.1%	5.1	-10.9	1.4%	11.6%[15.4 µM]	5.9	-2.1%
16	COc1ccc(C(=O)NN2CCOCC2)cc1[N+](=O)[O-]
 : 4.9%	-1.3	3.7	-4.1%	?	-10.0	0.3%
17	Cc1ccccc1NC(=O)/C=C/c1cccs1
 : 1.6%	1.9	-17.9	nt	-1.4%[15.4 µM]	-12.9	-4.5%
18	COc1ccc(/C=C/C(=O)N(C)Cc2cccs2)cc1S(=O)(=O)N1CCOCC1
 : 9.7%	5.2	-8.6	-3.1%	2.3%[15.4 µM]	1.2	-11.8%
19	Cc1c(Cl)cccc1NC(=O)Cc1cccs1
 : 8.4%	6.6	-2.3	0.7%	-20.4%	1.7	10.4%
20	Cc1ccc2c(c1)N(CC(=O)N1CCCC1)C(=O)CO2
 : 8.6%	-4.9	10.9	nt	-41.7%[inhibitor]	-2.2	4.5%

Just D2 potentiator and Menin MLL FP FL (2 entries from above):
nr | Molecule | D2 potentiator | Menin MLL FP FL
6 | Cc1noc(C)c1NC(=O)Nc1cccc2c1O[C@H](CN(C)S(=O)(=O)c1c(C)noc1C)[C@@H](C)CN([C@H](C)CO)C2=O | -4.6 | nt
7 | CC(=O)N1CC(C)Oc2ccc(S(=O)(=O)NC(CC(=O)O)c3ccccc3)cc21 (stereo not given) | -0.3 | 8.8

(more compounds)
Below each compound – Sfp inh	Menin MLL FP FL	TRPV1 potentiator	ClpP mod	gsp ag	D2 potentiator	gsp antagonist
21	Cc1sc2nc(COC(=O)c3ccc(N4CCCC(C)C4)c([N+](=O)[O-])c3)[nH]c(=O)c2c1C (stereo not given)
 : -20.4%	12.9	3.5	-5.1%	-30.8%[inhibitor]	4.6	-1.3%
22	c1csc(-c2nnc(COc3ccc4c(c3)OCO4)o2)c1
 : 13.8%	-4.0	-10.3	nt	11.5%[15.4 µM]	-5.8	-4.2%
23	Cc1cc(F)ccc1S(=O)(=O)Nc1ccc(C(=O)N2CCCCCC2)cc1
 : nt	nt	17.2	-1.3%	-2.4%	-3.0	-19.2%
24	CC(=O)c1c(C)nn(CCC(=O)O)c1C
 : 5.9%	-3.0	1.1	-21.6%	10.9%	9.0	7.5%
25	O=S(=O)(NCc1ccc(Cl)cc1)NCc1ccccc1F
 : 4.1%	-2.0	-1.0	nt	-28.5%	-2.6	3.3%
26	Cc1cc(-c2nnc(CCC(=O)NC(Cc3ccccc3)c3ccccc3)o2)no1 (stereo not given)
 : 17.1%	5.3	3.7	nt	-3.9%	-0.2	-14.3%
27	CCc1ccccc1-n1c(SCC(=O)NC)nnc1-c1cccnc1
 : 1.0%	-2.6	7.0	1.5%	-32.6%[inhibitor]	-7.7	2.3%
28	CC(=O)OC1OCCOC1NC(=S)NCc1ccco1 (stereo not given)
 : 22.4µM*	?	5.7	-3.4%	7.5%[15.4 µM]	-1.1	2.3%
29	CCc1ccccc1NC(=O)NNC(=O)c1ccc2ccccc2c1O
 : 8.0%	0.5	-13.5	3.3%	-2.4%	-9.2	2.2%
30	O=C(CN1CCN(c2ccccn2)CC1)Nc1ccccc1C(=O)Nc1ccccc1
 : nt	nt	-17.5	nt	-13.0%[15.4 µM]	11.6	-14.2%
31	CC(C)NS(=O)(=O)c1cc(C(=O)O)ccc1Cl
 : -3.0%	1.4	7.1	-3.3%	33.1%	-1.4	-14.9%
32	Cn1c(=O)c2c(nc(SCC(=O)OCc3ccccc3)n2C)n(C)c1=O
 : 17.0%	1.4	-3.0	0.4%	-6.9%	-8.3	1.4%
33	O=S(Cc1ccccc1)CC(O)(c1ccc(Cl)cc1)c1ccc(Cl)cc1 (stereo not given)
 : -29.1%	3.7	-13.9	0.6%	-25.5%	-9.3	-15.0%
34	CCOC(=O)N1CCN(C(=O)C(=O)NNC(=O)COc2ccc(Cl)c(C)c2)CC1
 : 7.3%	0.1	7.8	-0.5%	0.9%[15.4 µM]	0.0	8.5%
35	CCn1ccnc1C(O)c1ccccc1OC (stereo not given)
 : -1.0%	2.5	-2.9	-0.3%&-0.5%	-14.6%	-4.5	11.5%
36	CC(=O)c1sc(NC(=O)CCCOc2ccccc2C)nc1C
 : 4.9%	6.7	4.5	nt	-3.2%[15.4 µM]	14.8	-8.5%
37	COc1cc2c(cc1NC(=O)CN1CCN(S(=O)(=O)c3ccc(F)cc3)CC1)oc1ccccc12
 : 25.4%	4.6	-0.6	11.2µM*	?	-19.6	-14.5%
38	O=C(CCC(C(=O)c1ccccc1)c1ccccc1)c1ccccc1 (stereo not given)
 : nt	nt	nt	0.6%	0.9%	-6.9	nt
39	Cc1ccc(S(=O)(=O)Nc2nnc(CC(C)(C)C)s2)cc1
 : 79.4µM*	3.5	6.5	0.1%	-19.0%	-3.2	-9.2%
40	Cc1cc(NC(=O)CC(C)C)c(=O)n(Cc2c(F)cccc2Cl)c1
 : 23.8%	3.8	-21.4	-19.9%	6.6%	-2.6	-0.5%
41	CC(Sc1nnc(CC(=O)Nc2ccccc2F)n1C)C(=O)Nc1nccs1 (stereo not given)
 : 4.1%	0.7	-21.2	nt	14.4%	-0.9	0.5%
42	Cc1ccccc1-n1nc(-c2cccnc2)cc1C(=O)NN
 : -5.2%	0.4	-10.6	-0.2%	16.0%	-9.0	-14.4%
43	CCOc1ccccc1C(=O)Nc1ccc2nc3n(c(=O)c2c1)CCCCC3
 : 18.1%	nt	20.8	0.8%	?	3.0	7.1%
44	C/C(=C\C(=O)c1ccc(C)cc1)NCc1ccc(F)cc1
 : nt	nt	nt	-3.0%	7.6%	-5.2	-3.6%
45	COc1ccc(NC(=O)c2cc(=O)[nH]c3ccccc23)cc1S(=O)(=O)N1CCOCC1
 : nt	nt	nt	-1.0%	-4.4%	-5.4	nt
46	CCN(CC)C(=S)SCc1csc(CC(=O)Nc2ccccc2C)n1
 : 18.6%	3.6	-3.8	nt	?	-7.8	-5.6%
47	Cc1ccccc1NC(=O)c1nc(S(C)(=O)=O)ncc1Cl
 : -28.8%	2.5	26.2	-1.1%	?	-66.3	?
48	O/N=C/c1cc(Br)ccc1OCc1ccc(F)cc1
 : nt	nt	nt	1.0%	0.2%	-15.7	-17.0%
49	COc1ccc(/C=N/NC(=O)CCCOc2ccc(Cl)cc2Cl)cc1[N+](=O)[O-]
 : ?	0.8	-10.4	1.0%	-68.4%[inhibitor]	4.4	-24.5%
50	CCCC(=O)Nc1sc2c(c1C(=O)Nc1ccccn1)CCCC2
 : ?	4.1	-21.1	nt	-7.2%[15.4 µM]	4.7	-26.4%
51	C#CCOCCOCCOCCNc1nc(N2CCN(C(=O)CCCCCCCCCCNC(=O)[C@H](CCCCN)n3cc(C[C@@H](C)CC)nn3)CC2)nc(N2CCN(C(=O)CCCCCCCCCCNC(=O)[C@@H]([C@H](C)O)n3cc(C)nn3)CC2)n1
 : nt	nt	4.6	1.1%	nt	3.6	?
